HSD17B inh: blocks hydroxysteroid 17-beta dehydrogenase activity; Q99714; recombinant HSD17B10, NADH fluorescence kinetic; many of its hits are not listed in these tables; Potency, µM (highest dose often 57.1 µM), inactives show at the top dose activity change, negative = inhibition, actives largely listed as inhibitors; hit rate 7.6% among 75,000; AID 893; active = well fitted inhibition curve with a large enough effect; inconclusive = small, poorly fitted or top-dose-only effect; inactive = no such curve, though single readings can be large or run the other way;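 also: the protocol describes HADH2 (HSD17B10) and not the HSD17B4 of the title; nearly all actives have a fitted effect of over 70% in size; most hits overshoot -100% by far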
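His-tagged E. coli-expressed HADH2 at 20 nM in 100 mM Tris-HCl pH 9.0 with 0.01 % Tween-20, preincubated 15 min with compound at room temperature. Reaction with 1 mM NAD+ and 90 uM beta-hydroxybutyryl coenzyme A; NADH fluorescence (360/450 nm) read kinetically over 4 min, last minus first point.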
* marks the source's active call; other numbers are inactive results; ? = inconclusive; [ ] = dose if it differs, or a comment. % is scaled to controls: 0 for no effect and ±100 for the full control effect; potency is read from the fitted curve at half-maximal effect. The list is partial, so the mix of outcomes need not match the whole.

mol | HSD17B inh
COc1ccc(NC(=O)CSc2[nH]c(=O)cc(C)c2C#N)cc1OC | 1.2%
O=C(Nc1ccc(Cl)c(Cl)c1)N1CC=CCC1 | 1.9%
Cc1cc(C)cc(NC(=O)C2CCCN(c3nccc(C)n3)C2)c1 (stereo unspecified) | ?
COC(=O)c1c(OC)cc2c(c1C)Oc1c(Cl)c(O)c(Cl)c(C)c1C(=O)O2 | ?
Cc1cc(NC(=O)C2CCN(S(=O)(=O)Cc3ccccc3)CC2)ccc1-n1cnnn1 | 10.2%
CN(C)c1ncnc2ccc(-c3ccccc3C#N)cc12 | 5.01µM*
O=S(=O)(NCCc1csc(-c2cccnc2)n1)c1ccc2c(c1)OCCO2 | ?
COc1cc(OC)c(NC(=O)c2c(-c3ccccc3)noc2C)cc1Cl | -171.6%

Further structures.
mol | HSD17B inh
CCOc1cc2oc(=O)c3c(c2cc1Cl)CCC3 | 9.0%
C=C(N(C)C)[C@]1(C)C[C@H]1[C@H](NC(=O)CNC(=O)OCc1ccccc1)c1ccccc1 | 19.7%
Cc1ccc(N(CC(=O)NCc2ccc3c(c2)OCO3)S(=O)(=O)c2c(C)noc2C)cc1 | 8.1%
COc1ccccc1-c1nc(-c2ccc(C)nc2OC)no1 | -21.1%
Cc1ccc(C)c(OCCCC(=O)Nc2ccc(N3CCOCC3)cc2)c1 | -6.7%
CCCc1cc(=O)oc2cc(C)cc(OC(=O)c3ccco3)c12 | -1.8%
O=C(CSc1nc2ccccc2c(=O)n1CCC(=O)N1CCCCC1)NCc1ccccc1 | 4.2%
CCOC(=O)C1CCN(C(=O)c2n[nH]c(=O)c3ccccc23)CC1 | -2.2%

Next section.
mol | HSD17B inh
O=c1[nH]c(CSc2nnc(NCCCN3CCOCC3)s2)nc2cc(Cl)ccc12 | 2.5%
CC(C)(C)CC(=O)Nc1nnc(-c2cccs2)s1 | 25.1µM*
CCOc1ccccc1NC(=O)C1CC2CCCC(C1)C2=O (stereo unspecified) | 2.2%
O=C(Cn1c(=O)c2c(ncn2Cc2ccccc2)n(Cc2ccccc2)c1=O)NC1CC1 | -2.0%
c1ccc(CCC2=NCCn3cccc32)cc1 | 4.3%
CCCCn1c(CCNC(=O)c2cccs2)nc2ccccc21 | 8.4%
COCC(=O)Nc1cccc(C(F)(F)F)c1 | 6.3%
O=C(O)Cc1c[nH]c2ccc(F)cc12 | 0.9%[11.4 µM]

Continued:
mol | HSD17B inh
CC[N+](CC)(CC(=O)Nc1c(C)cccc1C)Cc1ccccc1 | 2.5%[25.6 µM]
COc1cccc(NC(=O)c2nc3nc(C)cc(C(F)F)n3n2)c1 | -0.8%
CC(C)C(c1nnnn1Cc1ccco1)N1CCN(c2cccc(Cl)c2)CC1 (stereo unspecified) | -2.5%
CCN1C(=O)C(C(=O)NC(C)c2ccccc2)C2CC1(C)Oc1ccccc12 (stereo unspecified) | 1.9%
O=C(NCC(c1ccc(F)cc1)N1CCOCC1)c1ccc(Br)o1 (stereo unspecified) | -2.7%
CCn1cc(C(=O)OCC(=O)N(C)C2CCS(=O)(=O)C2)c(=O)c2ccc(C)nc21 (stereo unspecified) | -0.4%
CC(=O)/C(=C\c1ccccc1F)C(=O)c1ccccc1 | 1.2%[11.4 µM]
CCCc1c(CC)c(=N)c2ccccc2n1C | -17.4%

Following part
mol | HSD17B inh
C=CC(C1=CC(=O)C(OC)=CC1=O)c1ccc(O)cc1 (stereo unspecified) | -7.5%
CCN1CCN(C(=O)C(NS(=O)(=O)c2ccc3nc(C)sc3c2)C(C)C)CC1 (stereo unspecified) | 7.5%
Cc1[nH]c(=O)[nH]c1CN1CCCCC1 | 2.8%
COc1cc(OC)cc(C(=O)N(Cc2cc3cc(C)ccc3[nH]c2=O)C(C)C)c1 | ?
CCc1nnc(NC(=O)c2ccc(S(=O)(=O)N(CCOC)CCOC)cc2)o1 | -7.3%
CCN1CCN(Cc2c(O)ccc3c(=O)c(-c4ccc(OC)c(OC)c4)c(C)oc23)CC1 | 31.6µM*
Cc1cccc(Nc2nnc(SCc3cn4ccsc4n3)s2)c1 | 2.9%
Cn1c(=O)c2c(nc(SCC(=O)N3CCc4ccccc4C3)n2C)n(C)c1=O | -2.6%

Remaining list, next part.
mol | HSD17B inh
Cc1noc2nc(-c3cccs3)cc(-c3nnc4n3CCCCC4)c12 | 3.16µM*
CC(C)CN1C(=O)NC(NC(=O)c2cccs2)(C(F)(F)F)C1=O (stereo unspecified) | 7.8%
CSCCC(N=Cc1c(O)n(-c2ccc(F)cc2)c(=O)[nH]c1=O)C(=O)O (stereo unspecified) | 6.8%
CC1CC(=O)N(CC(=O)NCc2ccc3c(c2)OCO3)c2ccccc2S1 (stereo unspecified) | 3.4%
CCSc1nc2n(n1)C(c1cccc(F)c1)C1=C(CCCC1=O)N2 (stereo unspecified) | ?
O=C(Nc1ccon1)c1cc2c(s1)CCCC2 | -3.1%
CCS(=O)(=O)N1CCN(c2cccc(C)c2C)CC1 | 2.9%
Cc1ccc(-c2csc3nc(C)n(-n4c(C)ccc4C)c(=O)c23)o1 | -21.5%

Continued:
mol | HSD17B inh
COc1cccc(CNC(=O)c2nnn(CC(=O)Nc3ccc(C)c(C)c3)c2N)c1 | 7.8%
CC(C)(C)OC(=O)N1CCN(c2ccc(NC(=O)Cn3nnc(-c4ccccc4)n3)cc2)CC1 | 0.8%
O=c1c2cccnc2[nH]c(=S)n1CCCN1CCN(c2ccc(F)cc2)CC1 | -6.8%
CCOCc1cnc(C)nc1NCC(=O)c1c(C)n(C)c2ccc(OC)cc12 | -15.0%
CCOC(=O)c1cnc(SCC(=O)Nc2ccc3c(c2)OCCO3)nc1N | -5.8%
O=C(CN(C(=O)Cn1nnc(-c2ccc(F)cc2)n1)C1CCCC1)NC1CCCC1 | -1.7%
COCn1c(-c2ccccc2)nc2ccccc21 | ?
c1cc(-c2noc(-c3ccc4c(c3)OCO4)n2)ccn1 | 8.3%

3 entries from above, set out differently:
Structure: C=C(N(C)C)[C@]1(C)C[C@H]1[C@H](NC(=O)CNC(=O)OCc1ccccc1)c1ccccc1
  HSD17B inh = 19.7%

Structure: Cc1ccc(N(CC(=O)NCc2ccc3c(c2)OCO3)S(=O)(=O)c2c(C)noc2C)cc1
  HSD17B inh = 8.1%

Structure: COc1ccccc1-c1nc(-c2ccc(C)nc2OC)no1
  HSD17B inh = -21.1%

Continued.
mol | HSD17B inh
O=C(Nc1ccc2ncccc2c1)Nc1ccc2ncccc2c1 | -5.7%[11.4 µM]
O=C(NCCCCCNC(=O)c1ccco1)c1ccco1 | 3.5%
O=C(NCCc1ccc(Cl)cc1)C1CCN(S(=O)(=O)c2cccc3nonc23)CC1 | 8.4%
COc1ccc(OC)c(CNC(=O)COc2cc(=O)n(C)c3ccccc23)c1 | -8.6%
Cc1cccc(N(CC(=O)NCc2ccc3c(c2)OCO3)C(=O)CCC(=O)Nc2ccccn2)c1C | 4.4%
CCc1ccc2[nH]c(=O)c(CN(Cc3ccco3)S(=O)(=O)c3ccc4c(c3)OCCO4)cc2c1 | -15.2%
Cc1cccc(N(C(=O)CNC(=O)c2ccco2)C(C(=O)NC2CCCC2)c2cccnc2)c1 (stereo unspecified) | -1.5%
CC[N+](CC)(CC)CC[C@](O)(c1ccccc1)C1CCCCC1 | 2.6%[25.6 µM]

(more compounds)
mol | HSD17B inh
O=C1C2=C(Nc3cc([N+](=O)[O-])ccc3N2)O[C@@H]1c1ccc([C@H]2OC3=C(Nc4ccc([N+](=O)[O-])cc4N3)C2=O)cc1 | -19.3%[11.4 µM]
CC(C)(C)n1ncc2c(=O)n(CC(=O)N3CCCc4ccccc43)cnc21 | 5.7%
N[C@@H](CCCP(=O)(O)O)C(=O)O | -4.0%
COC(=O)CSc1nnc(-c2ccc(S(=O)(=O)N3CCC(C)CC3)cc2)o1 | -0.3%
Cc1ccc(C(C(=O)NC2CCCC2)N(Cc2cccnc2)C(=O)c2snc(C(N)=O)c2N)o1 (stereo unspecified) | 25.1µM*
Cn1cccc1-c1nc2ccc(NC(=O)c3cccs3)cc2[nH]1 | -2.2%
CC1CCCN(c2nc3c(c(=O)n(C)c(=O)n3C)n2CCSc2nc3ccccc3s2)C1 (stereo unspecified) | -3.0%
CC(=O)NCC(=O)N(c1c(C)n(C)n(-c2ccccc2)c1=O)C1(C(=O)NC2CCCC2)CCCCC1 | 9.5%

(continued)
mol | HSD17B inh
N=c1n(CCO)c2ccccc2n1Cc1ccccc1Cl | -17.2%
Cc1cc(NC(=O)C2CC2)ncc1NC(=O)C12CC3CC(CC(C3)C1)C2 | 6.4%
CCOC(=O)CNC(=O)CSc1nc2cccnc2n1Cc1ccccc1 | -8.1%
CCOC(=O)C1CCCN(C(=O)c2ccc3c(c2)NC(=O)C(N2CCOCC2)S3)C1 (stereo unspecified) | 4.9%
O=C(CN1C(=O)NC2(CCCCCC2)C1=O)N1CCC(Cc2ccccc2)CC1 | 0.7%
Cc1ccc(-c2csc(N3CCC(NS(=O)(=O)c4ccc5c(c4)OCCO5)CC3)n2)cc1 | 0.6%
O=C(Oc1ccc2[nH]cc(CCN3C(=O)c4ccccc4C3=O)c2c1)c1ccco1 | -7.4%
O=C1C2CCCN2C(c2ccccc2)N1c1nccs1 (stereo unspecified) | 2.1%

The list goes on.
mol | HSD17B inh
O=C(CSc1nnc(-c2cccs2)n1-c1ccccc1)N1CCc2ccccc21 | 11.9%
CCn1c(N2CCN(C(=O)C34CC5CC(CC(C5)C3)C4)CC2)nc2ccccc21 | 4.8%
CCN(CCCn1c(=S)[nH]c2ncccc2c1=O)c1ccccc1 | 0.0%
Cc1csc2ncc(C(=O)Nc3ccccc3Cl)c(=O)n12 | 20µM*
CC(O)CCCCCCC/C=C/C=C/C(N)=O (stereo unspecified) | 1.5%[11.4 µM]
O=c1cc(N2CCC3(CC2)OCCO3)[nH]c(=O)n1C1CCCCC1 | 0.8%
Cc1ccc2c(c1)N(CCCC(=O)NCCCN1CCCC1=O)C(=O)CO2 | 4.1%
Cc1ccc2c(c1)NC(=O)C(CC(=O)NC1CCCCC1C)O2 (stereo unspecified) | 7.9%

(next part)
mol | HSD17B inh
COCCn1c(SCc2nc3sc(C(=O)OC)c(C)c3c(=O)[nH]2)nc2ccccc21 | -11.2%
CCCOc1ccc(C2C(C(=O)c3ccco3)=C(O)C(=O)N2CCN2CCOCC2)cc1OC (stereo unspecified) | 4.7%
Cn1c(Cl)nc2ccccc21 | -7.2%
COc1cccc2c3c(c(C)nc12)CC(C)O3 (stereo unspecified) | 31.6µM*
COc1ccc(-c2noc(N(C)CC(=O)Nc3cccc(C(F)(F)F)c3)n2)cc1 | -4.8%
O=C(c1cccc(Cl)c1)N1CCN(C2CCCCCC2)CC1 | 4.4%
O=C(O)Cc1cc2ccccc2nc1C(=O)O | 3.2%
CCn1nnnc1SCC(=O)Nc1cc(OC)cc(OC)c1 | -0.4%

(more compounds)
mol | HSD17B inh
Cc1cc(C(=O)O)cc(S(=O)(=O)N2CCOCC2)c1C | 17.3%
O=C(CSc1nnc(-c2ccncc2)o1)Oc1ccccc1 | -8.0%
COc1ccccc1N1CCN(C(=O)c2cc3n(n2)C(C(F)(F)F)CC(c2ccco2)N3)CC1 (stereo unspecified) | -6.5%
C=CCN(c1ccccc1)S(=O)(=O)c1ccc2c(c1)oc(=O)n2C | 0.9%
N=c1n(CC(=O)O)c2ccccc2n1Cc1ccccc1Cl | 9.9%
FC(F)(F)c1ccc(C2[C@H]3CN(Cc4cccnc4)[C@H](c4ccccc4)C34CC2(c2cccnc2)C4)cc1 (stereo partly specified) | 7.2%
CCSc1nc(N)c2c3c(sc2n1)CN(C)CC3 | 2.7%
CCc1nnc(NC(=O)CSc2nnc(COc3cccc(C)c3)o2)s1 | -6.9%

(listing goes on)
mol | HSD17B inh
CCOc1ccc(-c2nnn(CC(=O)NCc3ccco3)n2)cc1 | -1.8%
CC(C)Cn1c(=O)c(C(=O)Nc2ccncc2)c(O)c2ccccc21 | 1.5%
COc1cc(/C=N/n2c(SC)nnc(C(C)(C)C)c2=O)ccc1O | -8.0%
CCC(=O)NC(Nc1cccc(C)n1)(C(F)(F)F)C(F)(F)F | -7.2%
CCOC(=O)c1cnc(-n2nc(C)cc2C)nc1NC(C)c1ccccc1 (stereo unspecified) | -10.8%
Cc1ccc(CNC(=O)CCc2c(C)nc3ncnn3c2C)cc1 | 2.0%
O=C(CN1C(=O)CSc2ncccc21)N1CCOCC1 | 4.6%
CNc1ccccc1C(C)(C)c1cc(-c2ccco2)n[nH]1 | ?

Further structures follow.
mol | HSD17B inh
O[C@]1(c2ccccc2)c2ccccc2NC2=NCCN21 | -7.2%[11.4 µM]
CCN1C(=O)CC(C(=O)O)SC1=Nc1ccc(OC)cc1 (stereo unspecified) | 12.1%
CN(C)Cc1ccccc1-c1cncnc1NCc1cccnc1 | ?
Cc1cc(C)n(C2=NS(=O)(=O)c3ccccc32)n1 | -1.6%
CC(C)C(c1nnnn1Cc1cccs1)N1CCN(C2CCCC2)CC1 (stereo unspecified) | 2.3%
Cc1ccc(=O)n(C(C(=O)NCc2ccco2)C(=O)c2ccc(F)cc2)c1 (stereo unspecified) | -14.0%
CC1(C)Cc2nc(N)c(=O)sc2C1 | -4.3%
O=C(CCCOc1ccc(Cl)cc1)N1CCCCC1 | -7.3%

Remaining list, next part
mol | HSD17B inh
COc1cc2c(cc1OC)C(C(=O)N1CCCCC1)C(c1ccccc1F)N(C)C2=O (stereo unspecified) | 0.9%
CCN(CC)c1ccc(CN(C(=O)c2ccco2)C2CCS(=O)(=O)C2)cc1 (stereo unspecified) | -6.0%
c1cncc(CNc2ccnc(-c3ccc4c(c3)OCO4)n2)c1 | 20µM*
CCOC(=O)C1CCN(C(=O)COc2cc(C)c(Br)cc2C)CC1 | -4.2%
CCC(C)NC(=O)c1ccccc1NC(=O)C(C)N(c1ccccc1)S(C)(=O)=O (stereo unspecified) | 7.9%
O=C(Nc1ccc2c(c1)CCC2)C1CCCN(c2ncccn2)C1 (stereo unspecified) | 1.1%
